Bm FixLJ act: increases Burkholderia fixLJ two-component signaling; B. multivorans fixK-promoter GFP reporter, 18 h; active compounds read high; z-score (test concentration not listed); 29,000 compounds, 0.3% hits;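 active = replicate mean overnight rise in green fluorescent reporter signal, 3 or more SD over negative controls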;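 note: score is relative to vehicle wells of the plate; 300 nL library stock went into each well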
Active calls of the source: *. These rows are one share of the data. The share of hits here may be higher or lower than overall.

Start of the data: the first 5 compounds, ahead of the listing:
SMILES	Bm FixLJ act
COc1ccc2cc(C3CN(C(=O)CCCNC(C)=O)CCO3)ccc2c1 (stereo not drawn)	0.23
CCOC(=O)N1CCN(C(=O)CN(c2cccc(Cl)c2C)S(=O)(=O)c2ccc(C)cc2)CC1	-0.96
Cn1cc(C(=O)N2CCCC(c3nnc(CN4CCCC4)n3C)C2)cn1 (stereo not drawn)	-0.29
COc1cc(C2CC(=O)Nc3cc4c(cc32)OCCO4)cc(Br)c1OC (stereo not drawn)	0.56
CCN(C(=O)COc1cc(=O)n(C)c2ccccc12)c1cccc(C(F)(F)F)c1	-1.5

The list itself, previewed entries included:
SMILES	Bm FixLJ act
COc1ccc2cc(C3CN(C(=O)CCCNC(C)=O)CCO3)ccc2c1 (stereo not drawn)	0.23
CCOC(=O)N1CCN(C(=O)CN(c2cccc(Cl)c2C)S(=O)(=O)c2ccc(C)cc2)CC1	-0.96
Cn1cc(C(=O)N2CCCC(c3nnc(CN4CCCC4)n3C)C2)cn1 (stereo not drawn)	-0.29
COc1cc(C2CC(=O)Nc3cc4c(cc32)OCCO4)cc(Br)c1OC (stereo not drawn)	0.56
CCN(C(=O)COc1cc(=O)n(C)c2ccccc12)c1cccc(C(F)(F)F)c1	-1.5
CCOc1ccc(NC(=O)NCCN2CCN(c3cc(Cl)ccc3C)CC2)cc1	-1.9
Clc1ccc(CCNC(c2cccc(Cl)c2)c2nnc(-c3ccccc3)o2)cc1 (stereo not drawn)	0.54
CCCN(CCC)CC(O)Cn1cc(/C=C/C(=O)c2ccc(OCC)cc2)c2ccccc21 (stereo not drawn)	-2.5
Cc1cc(C)c(Cn2c3ccccc3c3cnn(CC(=O)N4CCCCCC4)c(=O)c32)c(C)c1	-0.12
COc1cc2c(cc1OC)CN(C(=O)C1CC(=O)N(Cc3cccnc3)C1)CC2 (stereo not drawn)	0.88
CCN(CC)CCCNC(=O)c1ccc2c(c1)N(Cc1c(F)cccc1Cl)C(=O)c1ccccc1S2	-1.3
Cc1cccc(NC(=O)CN2C(=O)C(c3ccc(F)cc3)=NC23CCCCCC3)c1C	-0.47
O=C(O)c1cccc(C2CCCN(C(=O)c3cc(-c4ccccc4)n[nH]3)C2)c1 (stereo not drawn)	-0.47
CCN(C(=O)CSc1nc2ncccc2[nH]1)c1ccc(C(C)C)cc1	-0.94
CCCCN(C)C(=O)Cn1cnc2sc(C)c(S(=O)(=O)N3CCN(c4ccccc4OC)CC3)c2c1=O	-0.64
CCN1CCOC(=O)C1CC(=O)Nc1ccccc1C(F)(F)F (stereo not drawn)	0.46
CCOC(=O)c1ccc2ncc3c(-c4ccccc4)nn(-c4ccc(F)c(Cl)c4)c3c2c1	-0.48
CC1=C(C(=O)Nc2cc(C)cc(C)c2)C2(CCCCC2)OC1=O	-1.5
CCN(CC)C(=O)Cn1c(=O)n(Cc2ccc(C(=O)NCCCOC)cc2)c(=O)c2ccccc21	-1.8
C#CCN1C(=O)C(O)(CC(=O)c2ccc(OC)c(OC)c2)c2cc(Br)ccc21 (stereo not drawn)	-3
CCCc1cc(C(=O)N2CCN(c3cc(C)nc4ncnn34)CC2)n(C)n1	0.3
C=C(c1ccc(C(=O)O)cc1)c1cc2c(cc1C)C(C)(C)CCC2(C)C	-0.87
CCc1nonc1NC(=O)c1oc2cc(C)c(C)cc2c1C	0.01
CC1=C(C(=O)Nc2ccccc2)C(c2ccccc2)n2nc(-c3ccco3)nc2N1 (stereo not drawn)	-2.9
CCOc1ccc(CCNC(=O)Cn2ncn3c(cc4ccccc43)c2=O)cc1OCC	0.69

Exported as labelled records: part of the list above.
Compound: CCOc1ccc(NC(=O)NCCN2CCN(c3cc(Cl)ccc3C)CC2)cc1
- Bm FixLJ act: -1.9
Compound: Clc1ccc(CCNC(c2cccc(Cl)c2)c2nnc(-c3ccccc3)o2)cc1 (stereo not drawn)
- Bm FixLJ act: 0.54

Later entries.
SMILES	Bm FixLJ act
O=C(CCc1ccc(O)cc1)N1CCC(c2nccn2CC2CC2)CC1	-0.52
CCN(CCCNC(=O)c1cc2c(=O)[nH]c3ccc(C)cc3c2s1)c1ccc(C)cc1	0.56
CCCCOc1ccc(OCCCN2CCOCC2)cc1	0.03
CS(=O)(=O)N1CCn2nc(CNc3ncnc4ccsc34)cc2C1	-0.99
COc1ccc(CNc2nc3c(-c4cccc(F)c4)nnn3c3ccccc23)cc1	-0.83
CC(=O)N1CCc2c(nc(-c3ccncc3)nc2NCCC2CCCC2)C1	-1.5
Cc1ccc(Cl)c(NC(=O)Nc2csc3c2CCCC3)c1	0.56
CC[C@@]1(O)CCCC2CN(C(=O)CCn3nc(C)cc3C)CC21 (stereo partly drawn)	-0.18
CCc1nccn1CC(=O)N1CCCCC1CCn1cccn1 (stereo not drawn)	0.18
COc1ccc(Cl)cc1C(=O)Nc1ccc2oc(-c3ccc(C(C)(C)C)cc3)nc2c1	0.16
CCC(C)c1ccc(OCC(=O)Nc2ccc(-c3nc4ncccc4o3)cc2)cc1 (stereo not drawn)	-0.84
CCCN(C(=O)Cn1nc(Cc2ccncc2)c2ccccc2c1=O)c1ccccc1C	-0.18
Cc1noc(NS(=O)(=O)c2ccc(N)cc2)c1C	-0.36
COCC(=O)Nc1ccc(NC(=O)Cn2ncc3ccccc32)cc1OC	-0.87
COC1COCC1NS(=O)(=O)c1cc(-c2cc(C(F)(F)F)on2)oc1C (stereo not drawn)	0.79
CCN(CC)c1ccc(NC(=O)CN(C)S(=O)(=O)c2cccc3nsnc23)c(C)c1	-1.8
COc1ccc(-c2csc3nc(-c4ccccc4C)oc(=O)c23)cc1OC	-0.97
Cc1cc(C)n(CC2(CNC(=O)c3cccc(Cn4cccn4)c3)CC2)n1	-0.35
CCCCc1nc(C)cc(NCCNc2ccc(C(=O)N(C)C)cn2)n1	-2.6
Cc1ccccc1NC(=O)Cn1c(=O)n(CCCCCC(=O)NCc2ccccc2Cl)c(=O)c2sccc21	-2.5
O=C(NC1(C(=O)O)CCOCC1)c1nccc2ccccc12	-1.8
O=C(O)CN1CCC(NC(=O)c2ccc(-c3cccc(F)c3)cc2)CC1	-0.95
CN(C(=O)c1cc2c(=O)oc3ccccc3c2s1)c1ccc(F)cc1	0.12
CCOC(=O)C1=C(C)N=C2SCCC(=O)N2C1c1ccc(OCc2ccccc2)cc1 (stereo not drawn)	1.1
O=C(c1ccccc1Cl)n1nc(-c2ccco2)nc1NCc1cccs1	-2.1

Brought forward from above: six compounds, followed by the next part.
SMILES	Bm FixLJ act
Cc1ccccc1NC(=O)Cn1c(=O)n(CCCCCC(=O)NCc2ccccc2Cl)c(=O)c2sccc21	-2.5
O=C(NC1(C(=O)O)CCOCC1)c1nccc2ccccc12	-1.8
O=C(O)CN1CCC(NC(=O)c2ccc(-c3cccc(F)c3)cc2)CC1	-0.95
CN(C(=O)c1cc2c(=O)oc3ccccc3c2s1)c1ccc(F)cc1	0.12
CCOC(=O)C1=C(C)N=C2SCCC(=O)N2C1c1ccc(OCc2ccccc2)cc1 (stereo not drawn)	1.1
O=C(c1ccccc1Cl)n1nc(-c2ccco2)nc1NCc1cccs1	-2.1
Cc1ccc2oc(=O)c3cc(C(=O)N4CCN(c5ccccc5)CC4)sc3c2c1	0.85
O=C(NCCCOc1cccnc1)c1csc(-c2cccs2)n1	-0.98
Fc1ccc(-n2nc(-c3ccccc3)c3cnc4ccccc4c32)cc1Cl	1.9
COc1cccc(NC(=O)CSc2nnc3scc(-c4ccc(Cl)cc4)n23)c1	-2.7
COc1ccc(C2c3c(oc4ccccc4c3=O)C(=O)N2Cc2ccc3c(c2)OCO3)cc1 (stereo not drawn)	-0.19
Cc1ccc2nc(C(=O)NCC(O)CN3CCCCCC3)c(F)n2c1 (stereo not drawn)	-0.44
COc1cccc(C(=O)NC2CCOCC2OCc2ccccc2)c1 (stereo not drawn)	-1.2
Cc1ccccc1Cn1c(CN2CCCC(C)C2)nc2c1c(=O)n(C)c(=O)n2C (stereo not drawn)	-0.35
CN(Cc1cnn(-c2ccc(F)cc2)c1)C(=O)c1ccc(-c2ccncc2)[nH]c1=O	0.45
Cc1cccc2[nH]c(CNC(=O)C3CCC(C(=O)O)C3)nc12 (stereo not drawn)	-2
Cc1cc(CNc2cc(C3CCOC3)nc(N3CC(O)C3)n2)ccc1F (stereo not drawn)	-1.2
C=C1CC[C@H](O)C/C1=C/C=C1\CCCC2(C)C1CCC2C(C)CCCC(C)C (stereo partly drawn)	-1.6
Cc1ccc(Cn2cc(S(=O)(=O)c3ccc(Cl)cc3)c(=O)c3cc4c(cc32)OCO4)cc1	0
Cc1ccc(NC(=O)Cn2c(-c3ccc4c(c3)OCO4)cn(-c3ccccc3)c2=O)cc1C	0.35
O=C(O)Cn1nc(N2CCN(c3ccccc3)CC2)ccc1=O	-0.56
Cc1cc2nn(-c3ccc(F)cc3)nc2cc1NC(=O)c1cc(Cl)ccc1Cl	-0.39
CCCCCn1c(CNC(=O)c2ccccc2)nc2ccccc21	-1.1
COc1ccc(CCCNC(=O)N(C)CCc2scnc2C)cc1	-0.97
O=C(CCNS(=O)(=O)c1cccc2nsnc12)NCc1ccccc1	-0.99
COc1cc(Cl)c(C)cc1NC(=O)CC1Oc2ccccc2NC1=O (stereo not drawn)	-2
NC(=O)Cn1c(=O)n(CCCCCC(=O)NCc2ccc(F)cc2)c(=O)c2sccc21	-1.5
Cc1ccc(OCC(=O)Nc2cccc(-c3nc4ccccc4o3)c2C)cc1C	-3
COc1ccccc1N(CC(=O)N1CCC(C)CC1)S(=O)(=O)c1ccc(C)cc1	-1
COc1ccccc1CN1C(=O)C(=O)c2cccc(C)c21	0.11
Cc1c(C)c2c(cc(C)c3c(-c4ccc(Br)cc4)coc32)oc1=O	-0.34
Other results
SMILES	Bm FixLJ act
O=C(COC(=O)c1cc(-c2cccs2)nc2ccccc12)c1ccc(Cl)cc1	0.57
O=C(c1cccs1)C1CCCN(C(=O)NCc2n[nH]c3c2CCCCC3)C1 (stereo not drawn)	0.28
Cc1cccc2ncc(C(=O)N3CC[C@@]4(CO)CCCN(C)[C@@H]4C3)c(=O)n12	-0.48
O=C(Cn1ncc2c3ccccc3n(Cc3cccc(Cl)c3)c2c1=O)NCCCc1ccccc1	19*
COc1ccc2oc(-c3cccc(NC(=O)c4sc5c([N+](=O)[O-])cccc5c4Cl)c3)nc2c1	-1.6
COCCN(CC(=O)Nc1ccc(C)c(F)c1)Cc1nccs1	-0.25
C=CCN1CC[C@]23c4c5ccc(O)c4O[C@H]2/C(=N/N=C2\CC[C@@]4(O)[C@H]6Cc7ccc(O)c8c7[C@@]4(CCN6CC=C)[C@H]2O8)CC[C@@]3(O)[C@H]1C5	-1.3
CCOC(=O)c1c(NC(=O)c2nc(SCC)ncc2Cl)sc(C(C)=O)c1C	-1.6
Cc1c(C(=O)OCc2ccccc2)[nH]c2c1C(=O)CC(c1ccc(C(C)(C)C)cc1)C2 (stereo not drawn)	-0.85
COc1cc(C2CC(=O)Oc3c2c(=O)n(C)c2ccccc32)ccc1O (stereo not drawn)	-2.6
Cc1cc(CC2CN(C(=O)c3n[nH]c(C)c3Cl)CC2O)on1 (stereo not drawn)	1.4
Cc1ncsc1CCN(C)C(=O)C=Cc1cc(CO)cs1	-0.39
COc1cccc(CC(=O)Nc2ccc(NC(=O)CN3CCCCC3)cc2)c1	0.31
CCCSc1ncc(Cl)c(C(=O)Nc2ccc(S(=O)(=O)N(C)c3ccccc3)cc2)n1	-0.45
Cc1cccnc1NCCNC(=O)CSc1nnc(N)s1	-1.1
COc1cccc(NC(=O)/C(C#N)=C/c2c(C)n(Cc3ccc(Cl)cc3)c3ccccc23)c1	-3.4
COc1ccc(CCNC(=O)c2ccc3c(c2)N(Cc2cccc(C)c2)C(=O)c2ccccc2S3(=O)=O)cc1OC	0.8
Cc1cc(OCC(=O)N(Cc2ccc(N(C)C)cc2)CC2CCCO2)ccc1Cl (stereo not drawn)	-0.57
CCOc1cc(C(Nc2cc(C)ccn2)c2ccc3cccnc3c2O)ccc1OC (stereo not drawn)	-0.34
COCc1cc(CNC(=O)c2c(Cl)ccc3ncccc23)[nH]n1	-0.41
Cc1cnn(CCCNC(=O)CCN2CCCCCC2=O)c1	0.14
O=C(Nc1nc2nc(-c3ccccc3)cc(=O)n2[nH]1)c1ccc(Cl)cc1	-1.9
CCOc1ccccc1NC(=O)Cn1c(=O)n(Cc2ccccc2)c(=O)c2cccnc21	-1.1
Cc1ccc2c(c1)c(=O)c(C(=O)c1ccccc1)cn2Cc1ccccc1F	0.06
COc1ccccc1C1CC(=O)N(c2cccc(C(F)(F)F)c2)C2=C1C(=O)OC2 (stereo not drawn)	-3.6
(continued)
SMILES	Bm FixLJ act
CCN(CC)CCN(CC)C(=O)c1cnc(-c2ccc(C)cc2)[nH]c1=O	-0.07
CCC(NC(=O)C1(c2ccc(S(C)(=O)=O)cc2)CCC1)C1CC(O)C1 (stereo not drawn)	0.04
CCOC(=O)c1c(NC(=O)c2nc(SC(C)C)ncc2Cl)sc2c1CCCC2	0.31
CCCCN(CC)C(=O)c1cc2c(=O)n3cccc(C)c3nc2s1	-0.54
COc1ccc2oc(=O)c(C(=O)N3CCN(c4cc(Cl)ccc4Cl)CC3)cc2c1	-2.1
CCOC(=O)c1c(NC(=O)COc2ccc(C(C)(C)C)cc2)sc2c1CCCC2	0.49
Cc1cccc(-c2nnn3c2nc(NCc2ccccc2)c2ccccc23)c1	-0.36
CCCCC(CC)CNC(=O)CCCc1nnc2n(CCC)c(=O)c3sccc3n12 (stereo not drawn)	-0.56
Cc1cc(C)n(-c2nc3ccccc3nc2N2CCN(c3cccc(C)c3C)CC2)n1	0.58
COc1ccc(-c2ccc3c(N)c(C(=O)Nc4ccc(C(F)(F)F)cc4)sc3n2)cc1OC	-0.42
Cc1noc(C)c1C(=O)N1CC2CCC(C1)N(Cc1ccccn1)C2=O (stereo not drawn)	-2.6
CCN1CC(NC(=O)c2oc3cc(C)ccc3c2C)CC1=O (stereo not drawn)	1.1
COc1ccc(NC(=O)c2oc3ccccc3c2NC(=O)c2cc(OC)c(OC)c(OC)c2)cc1	2.8
CCOc1ccc2nc(N3CCCC(C(=O)Nc4ccc(OC)cc4)C3)sc2c1 (stereo not drawn)	-2
Cc1nc(CNS(=O)(=O)c2cccc(C(=O)NCC(F)(F)F)c2)n[nH]1	-0.36

From PubChem BioAssay
